2A StopGo – FMDV 2A StopGo reporter, luciferase signal. human cells with a luciferase reporter of 2A StopGo recoding; control for the full effect not named in the record. Potency, µM (highest dose often 57.9 µM), inactives show at the top dose signal change, negative = less light. hit rate 1.2% among 410,000. AID 1159524; active = well fitted falling curve with a large enough effect; inconclusive = small, poorly fitted or top-dose-only effect; inactive = no such curve, though single readings can be large or run the other way; tested in HEK293T cells; note: % is set by controls: 0 for no effect and ±100 for the full control effect; nearly all actives have a fitted effect of over 45% in size; luciferase light after 4 h
RE007 growth inh – less growth of the S. pombe RE007 Vpr strain; S. pombe RE007 Vpr strain, BacTiter-Glo ATP luminescence, 24 h; control for the full effect not named in the record; Potency, µM (highest dose often 92.2 µM), for inactives: at the highest dose activity change, negative = less growth; hit rate 0.21% among 360,000; active = well fitted falling curve with a large enough effect; inconclusive = small, poorly fitted or top-dose-only effect; inactive = no such curve, though single readings can be large or run the other way;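 note: % is set by controls: 0 for no effect and ±100 for the full control effect; nearly all actives have a fitted effect of over 50% in size; the assay follows cell death caused by Vpr and the record does not say whether a fall means rescue or toxicity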
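Fission yeast strain RE007, carrying one chromosomally integrated HIV-1 vpr copy, was seeded at OD 0.01 in PMG+AL medium with 23 nL pinned compound. After 24 h at 30 °C and 99% humidity, viability was read by BacTiter-Glo luminescence.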
SARS PLpro yeast – blocks SARS-CoV papain-like protease in a yeast assay; Potency, µM (titrated, usually from 32.9 µM), for the others: at the top dose activity, positive = growth rescue; S. cerevisiae expressing SARS-CoV PLpro, growth rescue; control for the full effect not named in the record; hit rate 0.19% among 330,000; active means well fitted rising curve with a large enough effect; inconclusive means small, poorly fitted or top-dose-only effect; inactive means no such curve, though single readings can be large or run the other way; note: 0% is about no effect; nearly all actives have a fitted effect of over 55% in size; growth read by luminescence after 48 h
Numbers without * were called inactive; ? = inconclusive; [ ] = another dose, or the depositor's remark. Potency is the fitted concentration of half-maximal effect. This is a subset (hit frequency here may not be typical).

SMILES	SARS PLpro yeast	2A StopGo	RE007 growth inh
CN(C)S(=O)(=O)c1ccc(NC(=O)CN2C(=O)NC(Cc3ccccc3)C2=O)cc1 (stereo not drawn)	-3%	-18%	4%
CCCCn1c(N)c(N(CCC(C)C)C(=O)C2CCCC2)c(=O)[nH]c1=O	3%	-9%	3%
O=C(COC(=O)c1cc[n+]([O-])cc1)NC(=O)c1ccc(OC(F)F)cc1	1%	2%	-4%
CN(c1ccc(C(=O)Nc2ccc(CC#N)cc2)cc1)S(C)(=O)=O	-1%	17%	8%
CCOC(=O)[C@H]1[C@H]2COc3ccc(C)cc3[C@@H]2N2C(=O)CN(Cc3ccc(Cl)cc3)C(=O)[C@@]12C	-2%	?	12%
CC1(C)Oc2cc3oc(=O)ccc3cc2C[C@@H]1O	6%	16%	-16%
COc1ccc(S(=O)(=O)N(C)C[C@H]2Oc3c(NC(=O)NC4CCCCC4)cccc3C(=O)N([C@H](C)CO)C[C@@H]2C)cc1	1%	-17%	-2%
Cc1ccc(C2(C)NC(=O)N(CC(=O)c3ccc4c(c3)OCCO4)C2=O)cc1 (stereo not drawn)	6%	0%	2%
CN(c1ccccc1)S(=O)(=O)c1cccc(C(=O)NCc2ccccc2)c1	3%	2%	15%
COc1cc(OC)cc(C(=O)NNC(=O)CCc2nc3ccccc3c(=O)[nH]2)c1	4%	-6%	7%
COc1ccccc1NC(=O)C(C)OC(=O)CC1CCCCC1 (stereo not drawn)	4%	-27%	-7%
CCOC(=O)c1c(CC(C)C)csc1N	1%	-15%	-17%

SMILES	SARS PLpro yeast	2A StopGo	RE007 growth inh
Cc1ccc(C(=O)NCC(=O)OCC(=O)Nc2ccccc2C#N)s1	2%	2%	5%
CCCCN1CC(=O)N2[C@H]3c4ccccc4OC[C@@H]3[C@H](c3ccccc3)[C@]2(C)C1=O	-3%	-26%	-8%
O=C(N[C@@H]1C/C=C\C[C@@H](CC(=O)N(CCO)Cc2ccccc2)C(=O)NCCOC1=O)OCC1c2ccccc2-c2ccccc21	2%	-13%	-20%
COc1ccc(CNC(=O)COC(=O)c2[nH]c(C)c(C(C)=O)c2C)cc1OC	-6%	-26%	-2%
CSc1ncccc1C(=O)OCC(=O)N1CCCC1	-2%	1%	-3%
Cc1cc(C)c(NC(=O)CNC(=O)c2ccccc2SCC(=O)N2CCCC2)c(C)c1	1%	-17%	34%
CN(CCOC(=O)c1ccc2c(c1)OCO2)C(C)(C)C	2%	-10%	5%
Cc1cc(Cl)cc(C)c1OCC(=O)N1CCN(c2ncccn2)CC1	0%	-18%	10%
C=CCn1c(SC(C)C(=O)c2c(N)n(C)c(=O)n(C)c2=O)nnc1-c1ccoc1C (stereo not drawn)	0%	-13%	2%
O=C(Cn1c(=O)n(-c2ccc(F)cc2)c(=O)c2sccc21)NC1CCCCC1	1%	-11%	45%
COc1cccc(C=Nc2cccc3c(=O)[nH][nH]c(=O)c23)c1O	0%	11%	11%
O=C(COC(=O)/C=C/c1ccccc1)NCc1cccs1	0%	17%	-17%

SMILES	SARS PLpro yeast	2A StopGo	RE007 growth inh
O=C1C=C(c2ccc(Br)c3ccccc23)C[C@@H](c2ccc3c(c2)OCO3)C1	7%	-15%	-21%
Cc1ccc(C(=O)CSc2nnnn2-c2ccccc2)o1	-21%	0%	2%
COc1ccc(NC(=O)CN(C)CC(=O)N2CC(=O)Nc3ccccc32)cc1	-2%	-5%	-1%
Cc1n[nH]c(C)c1S(=O)(=O)N(C)Cc1ccco1	2%	-5%	-6%
CCOC(=O)c1c2ccccc2[n+]([O-])n1CCO	7%	1%	-2%
CC[C@@]1(C(=O)OC)N[C@H](CN(C)C(=O)c2ccc(F)cc2)[C@@H]2C(=O)N(C)C(=O)[C@@H]21	2%	-13%	5%
CC[C@@]12C(=O)N(c3cccc(F)c3)C(=O)N1[C@H](c1ccc(Cl)cc1)[C@@H]1C(=O)N(C3CCCCC3)C(=O)[C@@H]12	-12%	0%	0%
COc1ccc(NC(=O)COC(=O)C23CC4CC(CC(O)(C4)C2)C3)cc1Cl	2%	56%[activator]	-18%
O=[N+]([O-])c1ccc(NC2CCN(Cc3ccccc3)CC2)c([N+](=O)[O-])c1	0%	-12%	7%
Cc1ccc(S(=O)(=O)NC(=O)c2cccc(N(C)C)c2)cc1	5%	23%	15%
C[C@H](CO)N1C[C@H](C)[C@@H](CN(C)C(=O)Nc2ccccc2)Oc2c(NS(=O)(=O)c3cn(C)cn3)cccc2C1=O	8%	25%	11%
O=C(O)CNC(=O)/C=C/c1ccc(Cl)cc1Cl	1%	-23%	18%

SMILES	SARS PLpro yeast	2A StopGo	RE007 growth inh
CC(=O)c1nc(-c2ccccc2)sc1C	1%	21%	-9%
CC(C)C(NC(=O)c1ccccc1F)C(=O)Nc1nccs1 (stereo not drawn)	5%	-15%	18%
CCCNc1sc(S(=O)(=O)CCC)nc1S(=O)(=O)c1ccc(C)cc1	1%	13%	-12%
Cc1noc(C)c1NC(=O)Nc1ccc2c(c1)C(=O)N([C@H](C)CO)C[C@H](C)[C@@H](CN(C)C(=O)Nc1ccc(C(F)(F)F)cc1)O2	2%	-4%	7%
Cc1cc(Cl)ccc1NC(=O)CCN1C(=O)NC(C)(C)C1=O	-1%	-16%	-8%
CC(=O)OCC1=C(C(=O)O)N2C(=O)C(NC(=O)CC(C)c3ccccc3)C2SC1 (stereo not drawn)	-7%	-12%	-11%
CC(C(=O)Nc1nc(-c2ccc(F)c(F)c2)cs1)N1C(=O)C2CC=CCC2C1=O (stereo not drawn)	-8%	?	-20%
COc1cc(OC)cc(-c2cc3cc(F)ccc3cn2)c1	-13%	20%	-13%
COc1ccc(CCNC(=O)CSC(=O)c2ccccc2)cc1OC	0%	-14%	9%
CCc1c(C)nc(SCc2ccccn2)[nH]c1=O	5%	27%	15%
CC1CCCC(NC(=O)COC(=O)c2ccc3ncsc3c2)C1C (stereo not drawn)	-2%	1%	-7%
CCOC(=O)C1=CNS(=O)(=O)NC1c1ccc(C(=O)OC)cc1 (stereo not drawn)	12%	-12%	-12%

SMILES	SARS PLpro yeast	2A StopGo	RE007 growth inh
COC(=O)C1=C(c2cccc(C#N)c2)C[C@@H]2CC[C@H]1N2C(=O)NCCNC(C)=O	2%	-4%	3%
C=C(C)c1cccc(C(C)(C)NC(=O)NCCN(CC)CC)c1	2%	-22%	6%
CCCc1cc(=O)[nH]c(SCC(=O)NC2(C#N)CCCCC2)n1	7%	-24%	13%
O=C(CNC(=O)c1ccc(Cl)cc1)OCCN1C(=O)c2ccccc2C1=O	0%	-10%	3%
COCC(C)n1c(SCC(=O)Nc2sccc2C(N)=O)nc2ccccc2c1=O (stereo not drawn)	1%	?	9%
Cc1ccccc1C(=O)Nc1cc(C(F)(F)F)ccc1-n1cncn1	3%	6%	5%
O=C(CSc1nc2[nH]c(=O)cc(O)c2s1)Nc1ccc(Br)cc1	5%	-4%	-21%
CC(C(=O)N1CCOCC1)c1ccccc1 (stereo not drawn)	1%	-17%	6%
Oc1ccc(-[n+]2c(-c3ccccc3)cc(-c3ccccc3)cc2-c2ccccc2)cc1	-1%	10µM*	-21%
O=C(COC(=O)c1ccc(Br)o1)Nc1ccc(F)cc1[N+](=O)[O-]	-4%	0%	-21%
CNC(=O)c1cccc(NC(=O)c2cc(-c3ccccc3)nc3c2cnn3C(C)C)c1	-1%	?	27%
CC(OC(=O)CNC(=O)c1ccc(Br)cc1)C(=O)NC1CCCCC1C (stereo not drawn)	-1%	-11%	21%

SMILES	SARS PLpro yeast	2A StopGo	RE007 growth inh
COc1cc(OC)cc(-c2c(C#Cc3ccsc3)c3cc(-c4ccc(OC)nc4)ccc3n2C)c1	1%	6%	-12%
CN(C)CCCNc1oc(-c2ccc(Cl)cc2)nc1S(=O)(=O)c1ccccc1	6%	-16%	-2%
CN(C)C1=NCC(CSC(=N)N)S1 (stereo not drawn)	2%	-13%	8%
Cc1c(C(=O)OCC(=O)NCCc2ccc(S(N)(=O)=O)cc2)oc2ccccc12	-6%	-19%	-8%
COc1ccc2c(c1)-c1ccccc1S(=O)(=O)N(C)C2	?	4%	-16%
CCOc1cc(/C=N/NC(=O)c2ccccc2OCc2ccc(F)cc2)ccc1O	-11%	?	4%
CCOC(=O)c1sc(NC(=O)C2CCC2)cc1C	-2%	57%[activator]	3%
CCOC(=O)C1CCN(C(=O)C(CCSC)NC(=O)c2ccccc2OC)CC1 (stereo not drawn)	1%	-16%	13%
Nc1cccc(CP(=O)(c2ccccc2)c2ccccc2)c1	0%	-1%	-3%
CN(C)S(=O)(=O)c1cc(C(=O)Nc2ccn(C)n2)c(Cl)cc1Cl	-2%	-15%	18%
Cc1cccc(NC(=O)CNC(=O)c2cn(Cc3ccccc3)nc2-c2cccnc2)c1C	2%	-15%	10%
C[C@H](CO)N1C[C@H](C)[C@H](CN(C)S(=O)(=O)c2cn(C)cn2)Oc2ccc(NC(=O)Nc3ccc(C(F)(F)F)cc3)cc2CC1=O	1%	0%	-4%

SMILES	SARS PLpro yeast	2A StopGo	RE007 growth inh
CC(=O)c1cccc(NC(=O)c2noc3c2CCc2ccccc2-3)c1	2%	75%[activator]	3%
Cc1ccc(-n2ncc3c(=O)[nH]c(SCC(=O)NCC4CCCO4)nc32)cc1 (stereo not drawn)	-6%	-17%	-4%
Cn1nnnc1SCc1ccc(Cl)cc1	-3%	-22%	-9%
CCC1=NN2C(=N)/C(=C\c3cccn3-c3ccc(Br)cc3)C(=O)N=C2S1	-4%	2%	4%
CNc1snc(C)c1C(=O)OCC(=O)c1ccc(Cl)cc1	-20%	?	-17%
CCOC(=O)c1nc(C(=O)NCc2ccc(C)cc2)nc2ccccc12	4%	6%	4%
COc1ccc2c(CC(=O)N3CCN(S(=O)(=O)c4ccc(F)cc4)CC3)coc2c1	-5%	-21%	5%
C#CCOCCOCCOCCNc1nc(N2CCN(C(=O)Cn3cc(CCCN=C(N)N)nn3)CC2)nc(N2CCN(C(=O)[C@H](CCCCN)n3cc(CCC(=O)O)nn3)CC2)n1	1%	-19%	0%
CCCNC(=O)C(Cc1ccccc1)NC(=O)c1ccc(C(C)(C)C)cc1 (stereo not drawn)	2%	8%	-4%
Cc1cccc(CCN2C(N(C)C)=NC[C@@H]2CC(C)C)c1	0%	-17%	-11%
CC1(C)CC(=O)C/C(=N\NC(=O)C2CC2c2ccccc2)C1 (stereo not drawn)	0%	28%	-2%
COCCCNC(=O)c1cccc(S(=O)(=O)N2CC3(C)CC2CC(C)(C)C3)c1 (stereo not drawn)	-8%	13%	2%

By substructure, those above with a nitro group on carbon.
SMILES	SARS PLpro yeast	2A StopGo	RE007 growth inh
O=[N+]([O-])c1ccc(NC2CCN(Cc3ccccc3)CC2)c([N+](=O)[O-])c1	0%	-12%	7%
O=C(COC(=O)c1ccc(Br)o1)Nc1ccc(F)cc1[N+](=O)[O-]	-4%	0%	-21%

(list continues)
SMILES	SARS PLpro yeast	2A StopGo	RE007 growth inh
COc1ccc(NC(=O)c2cccc(S(=O)(=O)NCc3ccccc3)c2)cc1S(N)(=O)=O	-1%	34%[activator]	-5%
O=C(NC1CC1)c1cccc(S(=O)(=O)N2CCOCC2)c1	1%	0%	-1%
COc1ccccc1C(=O)NC(=O)COC(=O)CNC(=O)c1ccccc1F	-2%	10%	3%
C#CCCc1ccccc1/C=[N+](/C)[O-]	-2%	23%	-14%
CC(C)(C)OC(=O)C[C@@H]1C/C=C\C[C@H](CC(=O)N(CCO)Cc2ccccc2)C(=O)NC[C@@H](c2ccccc2)OC1=O	-1%	-18%	8%
COc1ccc(C(CNC(=O)C2CC(=O)N(Cc3ccccc3)C2)N2CCOCC2)cc1 (stereo not drawn)	3%	-14%	-9%
CCN1C(=O)[C@H]2[C@@H](c3ccc(-c4ccc(OC)cc4)c(OC)c3)N[C@@](CC(C)C)(C(=O)OC)[C@H]2C1=O	0%	-9%	-10%
CC(C)N(C(=O)[C@H]1CC(CC(=O)NCCCN(C)C)C(=O)N2CCc3c([nH]c4ccccc34)[C@]12C)C(C)C (stereo partly drawn)	1%	-23%	-9%
COC(=O)c1c(C)[nH]c(C(=O)C(C)OC(=O)C2CC(=O)N(CCc3ccccc3)C2)c1C (stereo not drawn)	2%	-19%	-2%
CCC(C(=O)N(C(C)C)C(C)C)c1ccccc1 (stereo not drawn)	0%	5%	-2%
